Mtb bLac sens: beta-lactam sensitization of Mtb H37Rv. M. tuberculosis H37Rv growth with meropenem, percent inhibition; hits of this screen are not shown here. inhibition, % at 25 µM. actives 0.27% (n = 330,000);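 active means about 74% or more and at least 40 points above the plate without the antibiotic, then above 30% in a dose series; inconclusive means first-round hits that could not be retested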;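 further: growth measured after seven days incubation then overnight dye step; 0% = bacteria only wells and 100% = bacteria with antibiotic; twin plates without the antibiotic show which effects depend on it; some results filed as inactive read as strong as hits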
Mtb growth: M. tuberculosis H37Rv growth inhibitors, H37Rv strain (AID 1626); actives 0.95% (n = 220,000); inhibition, % at 10 µM; hits with a dose series show IC50 in µM; M. tuberculosis H37Rv growth inhibition; higher % means a stronger effect;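 active means confirmed in a dose series; inconclusive means inhibition above 80% but not taken into the dose series; inactive means below 80% or under 30% at every dose of the series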;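 further: bacteria incubated seven days before Alamar blue readout; 0% = bacteria only wells and 100% = bacteria with antibiotic wells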
RecA intein inh: inhibitors of M. tuberculosis RecA intein splicing. inhibition, %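 (about 9 µM by stock and volumes)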. actives 0.75% (n = 290,000). cell-free RecA intein splicing, fluorescence. P9WHJ3; in the data active means inhibition above about 30%; inconclusive means no clear call, values can overlap the other calls;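 further: 0% = vehicle wells and 100% = reference inhibitor control wells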
Target sequence (P9WHJ3 whole entry, looked up): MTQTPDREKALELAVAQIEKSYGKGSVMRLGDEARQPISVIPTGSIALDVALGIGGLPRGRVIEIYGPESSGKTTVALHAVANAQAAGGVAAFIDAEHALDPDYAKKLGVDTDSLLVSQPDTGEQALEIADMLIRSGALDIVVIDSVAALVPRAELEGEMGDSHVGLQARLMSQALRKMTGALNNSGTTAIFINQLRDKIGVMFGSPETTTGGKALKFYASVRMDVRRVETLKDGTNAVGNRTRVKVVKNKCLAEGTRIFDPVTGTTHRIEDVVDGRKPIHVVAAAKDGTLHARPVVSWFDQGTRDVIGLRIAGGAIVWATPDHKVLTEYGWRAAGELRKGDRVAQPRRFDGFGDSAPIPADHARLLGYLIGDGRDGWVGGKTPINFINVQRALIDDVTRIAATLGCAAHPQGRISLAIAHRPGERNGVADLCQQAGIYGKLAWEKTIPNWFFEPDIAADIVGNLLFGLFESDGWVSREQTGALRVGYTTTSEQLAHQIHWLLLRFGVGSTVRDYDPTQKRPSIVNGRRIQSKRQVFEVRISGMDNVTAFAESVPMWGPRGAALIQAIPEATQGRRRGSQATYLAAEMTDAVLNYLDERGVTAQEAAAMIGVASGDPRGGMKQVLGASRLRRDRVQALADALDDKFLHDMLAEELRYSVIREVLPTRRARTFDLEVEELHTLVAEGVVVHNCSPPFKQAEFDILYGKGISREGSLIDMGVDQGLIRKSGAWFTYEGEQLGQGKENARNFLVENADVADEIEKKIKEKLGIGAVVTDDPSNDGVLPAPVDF
Arbovirus anti: antivirals against arbovirus infection. arbovirus infection cell-based antiviral screen. inhibition, % at 10 µM. AID 1251. actives 0.37% (n = 200,000);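 active means inhibition from about 30%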;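 further: bluetongue infection of BSR cells; cell survival read as ATP light after 72 h; 0% = infected wells without compound and 100% = uninfected wells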
YopH inh: blocks Yersinia enterocolitica YopH tyrosine phosphatase; fluorescence Ex485/Em525; inhibition, %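 (about 10 µM by stock and volumes)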; actives 0.16% (n = 140,000); AID 898;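 active means inhibition of 50% or more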;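 further: controls were vehicle for no effect and minimum signal wells for full effect; inactives centre near -20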
Arbovirus anti repeat: second read-out of Arbovirus anti, no call of its own (marks repeat the call); inhibition, %; measured here: 10K subset replicate screen; many hits read low in the repeat;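 first of two repeat runs on a subset; 0% = infected and 100% = uninfected wells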
Starred values were filed as active, the others as inactive; ? = inconclusive; / = not tested or not shown. An excerpt; rates above refer to the full screens.

The first 6 compounds, to show the layout:
SMILES	Mtb bLac sens	Mtb growth	RecA intein inh	Arbovirus anti	YopH inh	others
Cc1cc(N/N=C/c2ccc(O)cc2O)c2ccccc2n1	5.7	/	-0.5	/	/
CC(=O)N1CCN(C(=O)c2ccc(Oc3ccccc3)cc2)CC1	-9.9	-2.6%	-1.1	7.8	/
Cc1cc(Cl)ccc1OCC(=O)NCCCN1CCOCC1	-9.3	2.9%	-2.0	4.6	-53.6
Cc1ccc(NC(=O)COC(=O)Cn2c(C)csc2=O)c([N+](=O)[O-])c1	0.7	/	3.5	/	/
O=C(Nc1ccccc1F)c1ccc(Br)o1	-3.0	9.0%	0.6	-7.5	-41.3
CC1CCN(S(=O)(=O)c2cccc(C(=O)Oc3ccc([N+](=O)[O-])cc3)c2)CC1	-1.6	6.0%	5.0	7.2	-7.0

The whole of this part (from the top)
SMILES	Mtb bLac sens	Mtb growth	RecA intein inh	Arbovirus anti	YopH inh	others
Cc1cc(N/N=C/c2ccc(O)cc2O)c2ccccc2n1	5.7	/	-0.5	/	/
CC(=O)N1CCN(C(=O)c2ccc(Oc3ccccc3)cc2)CC1	-9.9	-2.6%	-1.1	7.8	/
Cc1cc(Cl)ccc1OCC(=O)NCCCN1CCOCC1	-9.3	2.9%	-2.0	4.6	-53.6
Cc1ccc(NC(=O)COC(=O)Cn2c(C)csc2=O)c([N+](=O)[O-])c1	0.7	/	3.5	/	/
O=C(Nc1ccccc1F)c1ccc(Br)o1	-3.0	9.0%	0.6	-7.5	-41.3
CC1CCN(S(=O)(=O)c2cccc(C(=O)Oc3ccc([N+](=O)[O-])cc3)c2)CC1	-1.6	6.0%	5.0	7.2	-7.0
CCCCN1C(=O)NC(NS(=O)(=O)c2ccc(N)cc2)(C(F)(F)F)C1=O (stereo not given)	3.4	-4.4%	/	7.0	4.7
CC(NC(=O)c1ccc(F)cc1)c1ccc(F)cc1 (stereo not given)	-2.8	4.1%	-1.0	-1.3	-25.8
O=C(NCCC1CCCCN1S(=O)(=O)c1ccccc1)C(=O)Nc1ccccc1F (stereo not given)	-12.8	/	0.4	/	/
COc1ccc(CCNC(=O)CSc2nc3[nH]ncc3c(=O)[nH]2)cc1OC	-0.9	1.6%	-5.6	2.0	/
CCOC(=O)C1=C(CN2CCSCC2)NC(=O)NC1c1cccc([N+](=O)[O-])c1 (stereo not given)	-5.9	5.2%	0.3	19.1	/
CCC(C)NS(=O)(=O)c1ccc(S(=O)(=O)N2CCCC3(CCCCC3)C2)cc1 (stereo not given)	1.1	-7.0%	-0.6	6.7	16.2
CCc1ccccc1NC(=O)CN1CCC(NC(=O)COC)CC1	2.7	-9.1%	-1.9	1.8	-35.7
O=C(N/N=C/c1ccccn1)C12CC3CC(CC(C3)C1)C2	72.8	57.0%	-1.2	-28.3	-25.1
CC1CCC2(CC1)NC(=O)N(Cc1cccc(C(F)(F)F)c1)C2=O (stereo not given)	-2.8	3.4%	-0.7	15.2	/
COc1ccc(N2CCN(C(=O)c3cc4c(-c5cccc(OC)c5)nn(C)c4s3)CC2)cc1	74.1	68.7%	/	-2.4	-2.8
CC(C)Cc1nc(C(N)=O)c2[nH]c(=O)n(-c3ccc(F)cc3)c2n1	6.9	/	-1.2	8.0	-47.7	Arbovirus anti repeat=3.6
COc1ccc(CCNC(=O)CSc2nc3ccccc3o2)cc1OC	7.9	3.9%	-0.3	12.2	0.9
COCCn1c(SC(C)C(=O)Nc2ccc(Cl)cn2)nnc1-c1ccncc1 (stereo not given)	-6.6	0.9%	-0.6	0.4	/
CCCN(Cc1ccc(N(CC)CC)cc1)CC1CC1	1.1	-3.7%	-2.3	8.4	-7.3
COc1cccc(NCc2cc3c(C(C)(C)C)nn(-c4ccccc4)c3[nH]c2=O)c1	7.9	-5.7%	4.9	-43.4	-41.2
COc1ccc(NC(=O)c2ccc(N(C)S(C)(=O)=O)cc2)cc1OC	7.7	3.2%	-2.8	2.8	0.0
Cc1cnc(C(=O)OCC(=O)NC2CCCCCCC2)cn1	-1.8	0.4%	-0.2	9.1	/
O=c1c(F)cn(C2CCCO2)c(=O)n1Cc1c(Cl)cccc1Cl (stereo not given)	-1.5	-0.6%	-1.2	-1.7	-21.2
O=C(Nc1nccs1)c1ccc(Cl)s1	82.5	74.4%	/	3.1	-24.7	Arbovirus anti repeat=-8.1

Fetched one by one from the list above:
SMILES	Mtb bLac sens	Mtb growth	RecA intein inh	Arbovirus anti	YopH inh	others
Cc1cc(N/N=C/c2ccc(O)cc2O)c2ccccc2n1	5.7	/	-0.5	/	/
O=c1c(F)cn(C2CCCO2)c(=O)n1Cc1c(Cl)cccc1Cl (stereo not given)	-1.5	-0.6%	-1.2	-1.7	-21.2
O=C(NCCC1CCCCN1S(=O)(=O)c1ccccc1)C(=O)Nc1ccccc1F (stereo not given)	-12.8	/	0.4	/	/

Among those listed so far, 2 contain two or more sulfur atoms:
SMILES	Mtb bLac sens	Mtb growth	RecA intein inh	Arbovirus anti	YopH inh	others
CCC(C)NS(=O)(=O)c1ccc(S(=O)(=O)N2CCCC3(CCCCC3)C2)cc1 (stereo not given)	1.1	-7.0%	-0.6	6.7	16.2
O=C(Nc1nccs1)c1ccc(Cl)s1	82.5	74.4%	/	3.1	-24.7	Arbovirus anti repeat=-8.1

Continuation:
SMILES	Mtb bLac sens	Mtb growth	RecA intein inh	Arbovirus anti	YopH inh	others
CCOC(=O)Cc1csc(NC(=O)C(C)c2ccc([N+](=O)[O-])cc2)n1 (stereo not given)	0.8	14.5%	0.1	7.2	/
Cc1nccn1CC(=O)N/N=C/c1cc(Br)cs1	-5.2	3.4%	-0.9	/	/
CCC(C)NC(=O)c1cc(S(=O)(=O)N2CCCCC2)c[nH]1 (stereo not given)	-5.4	/	0.5	/	/
O=C(CSc1nnc(-c2ccccc2)o1)N1CCc2ccccc2C1	74.0	0.6%	1.2	-5.3	15.8
CC(NC(=O)C(=O)NN=C1CCCCCC1)c1ccccc1 (stereo not given)	-8.5	3.5%	-2.7	-7.0	-26.4
CCOC(=O)c1c(NC(=O)CSc2nnnn2C)sc(C)c1-c1ccc(C)cc1	20.4	-6.9%	5.7	-13.5	-14.4
COc1ccc(/C=C/C(=O)NCC(=O)N/N=C/c2cccs2)cc1	-3.4	/	0.5	/	/
CC(=O)Nc1ccccc1OCc1nnc(-c2ccccc2Cl)o1	-0.5	/	0.1	/	/
S=C(NCc1ccccc1)NC1CCSc2ccccc21 (stereo not given)	-2.9	/	10.5	/	/
Cc1ccc(S(=O)(=O)NCC(=O)N(CC(=O)NCC2CCCO2)C2CCCC2)cc1 (stereo not given)	10.3	-4.5%	-4.4	13.2	-40.1
O=C(CN1C(=O)CCS(=O)(=O)c2ccccc21)NCc1ccccc1	-16.1	1.6%	-0.9	-0.8	13.9
CCOc1ccc(C(=O)Nc2nnc(C)s2)cc1OCC	8.0	-5.6%	2.7	-4.6	-27.0
COC(=O)C1=C(N)OC2=C(C(=O)CCC2)C1c1cccnc1 (stereo not given)	-10.5	0.2%	2.2	1.4	/
CCOC(=O)c1c(C)[nH]c(C)c1S(=O)(=O)N(C)CC(=O)Nc1cccc(C)c1	-0.2	/	-1.8	/	/
COc1ccccc1N(CC(=O)Nc1c(C)n(C)n(-c2ccccc2)c1=O)S(=O)(=O)c1ccc(C)cc1	-7.1	1.3%	-0.6	-1.0	/
O=C(CCl)Nc1cccc(Oc2cnccn2)c1	89.7	/	8.0	/	/
O=C1NC(=Nc2ccc(F)cc2)CS1	2.2	7.1%	-0.6	10.4	/
CCc1ccc(N2C(=O)C3C4C=CC(CC4)C3C2=O)cc1 (stereo not given)	2.1	/	-1.7	/	/
Cc1cc(C(=O)NNS(=O)(=O)c2ccc(C(C)(C)C)cc2)nn1C(C)(C)C	32.8	3.1%	/	/	/
CNC(=O)COC(=O)c1[nH]c(C)c(C(C)=O)c1C	?	0.9%	0.1	11.0	0.1
COC(=O)c1ccc(-c2ccco2)n1Cc1cccc(C)c1	?	-6.0%	13.5	-9.5	-11.8
COCCCNC(=O)CN1C(=O)COc2ccc(S(=O)(=O)N3CC(C)CC(C)C3)cc21 (stereo not given)	-3.9	/	1.2	/	/
Cc1occc1-c1nnc(SCC(=O)O)n1-c1ccccc1	-0.7	2.8%	-0.8	/	/
CC(NC(=O)c1cc(COc2ccc3ncccc3c2)on1)c1ccc(F)cc1 (stereo not given)	0.9	8.8%	0.9	/	/
O=C(CC(c1ccccc1)c1ccccc1O)NCc1ccco1 (stereo not given)	-8.6	-6.5%	2.4	-5.2	-3.1
The list continues:
SMILES	Mtb bLac sens	Mtb growth	RecA intein inh	Arbovirus anti	YopH inh	others
CC(=O)c1ccc(NC(=O)NNS(=O)(=O)c2ccc(F)cc2)cc1	-1.2	/	0.8	/	/
C/C(=N\Nc1ccccc1[N+](=O)[O-])c1ccccc1O	6.0	/	-1.5	/	/
Cc1nnc(SCC(=O)NCC(=O)Nc2ccc(F)c(F)c2F)n1Cc1ccccc1	13.7	6.1%	3.0	4.5	/
CCOc1ccc(S(=O)(=O)c2cn(C)c3cc(OC)c(OC)cc3c2=O)cc1	?	/	-3.0	/	/
C/C(Cl)=C/Cn1c(SC(C)C)nc2c1c(=O)[nH]c(=O)n2C	-6.0	7.1%	/	6.1	-32.9
CCN(CC)S(=O)(=O)c1cc(NC(=O)CCNC(=O)c2ccco2)ccc1C	-1.6	/	-0.4	/	/
COc1ccc(C2C(C(C)=O)=C(Nc3ccccc3)CC(C)(O)C2C(C)=O)cc1OC (stereo not given)	-1.3	3.3%	9.0	2.9	-8.1
Cc1ccccc1CN1CCN(S(=O)(=O)c2cccc3nsnc23)CC1	0.9	/	5.6	/	/
CC1CCCC(n2c(=S)[nH]c3ccccc3c2=O)C1C (stereo not given)	89.1	53.7%	8.4	-25.6	-37.4
CC1CCN(CC(=O)N2c3ccccc3CC2C)CC1 (stereo not given)	1.6	-0.3%	1.3	2.5	/
CNc1nc(SCc2ccccc2)nc(N2CCOCC2)n1	-2.1	6.8%	0.0	-4.3	-10.9
O=P(c1cccs1)(c1cccs1)c1cccs1	-1.1	-2.6%	0.2	-1.5	-15.7
O=c1n(Cc2ccccc2)nc2n1-c1ccccc1SC2	-0.1	0.5%	4.6	/	/
COc1ccc(/C=N/NC(=O)c2cccc(NC(=O)c3ccc(Cl)cc3)c2)c(OC)c1	-2.1	-1.5%	1.1	-14.9	-21.6
CC(NC(=O)c1ccnn1C)C1CCCO1 (stereo not given)	-4.0	5.6%	0.2	0.7	/
O=C(NC1CC1)C1CCCN1S(=O)(=O)c1ccc2ccccc2c1 (stereo not given)	-3.7	-8.0%	-0.8	-11.3	-35.9
COCCn1c(SCC(=O)c2ccccc2)nc2c(c1=O)SC(C)C2 (stereo not given)	-3.2	0.3%	/	0.0	-3.3
COc1ccc2c(c1)c(=O)oc1cc(OCC(=O)N3CCC(C)CC3)ccc12	-5.2	0.7%	-3.6	-24.7	-1.1
C=CCN1C(=O)NC(c2ccc(OC)cc2)(C(F)(F)F)S/C1=C(\C#N)c1nnc(N2CCOCC2)n1-c1ccccc1 (stereo not given)	3.4	1.6%	43.4*	17.0	-35.4
CC(=O)Nc1ccc(-c2cc(C(=O)O)c3ccc(C)cc3n2)cc1	0.2	-7.1%	/	/	/
COc1ccc(S(=O)(=O)N2CCOC2CNC(=O)C(=O)NCc2ccco2)cc1C (stereo not given)	-5.6	-14.4%	-0.1	/	/
CCOC(=O)c1c(C)[nH]c(C(=O)COC(=O)CCS(=O)(=O)c2ccc(C)cc2)c1C	2.8	-6.9%	0.2	-3.1	-38.0
COc1ccc(OCC(=O)Nn2c(-c3ccc(OC)cc3)nc3ccccc3c2=O)cc1	-8.0	9.6%	0.8	11.9	-8.0
COC(OC)c1ccc(C#N)c(SCc2ccc(C)cc2)n1	4.3	-1.1%	/	/	/

At a glance, some entries already given:
SMILES	Mtb bLac sens	Mtb growth	RecA intein inh	Arbovirus anti	YopH inh	others
CC(NC(=O)c1ccnn1C)C1CCCO1 (stereo not given)	-4.0	5.6%	0.2	0.7	/
O=C(NC1CC1)C1CCCN1S(=O)(=O)c1ccc2ccccc2c1 (stereo not given)	-3.7	-8.0%	-0.8	-11.3	-35.9
